Screening data deposited in PubChem BioAssay by National Center for Advancing Translational Sciences (NCATS).
PK Bst: alters activity of Bacillus stearothermophilus pyruvate kinase; partly purified Bacillus stearothermophilus pyruvate kinase, luminescence ATP production; ribose 5-phosphate activator present at AC10; Potency, µM; 51,000 tested, 1.2% active; in the data active means potency below about 11 µM; inconclusive means mostly about 12 µM to 25 µM; inactive means weaker than that;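 the screen sought inhibitors and activators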;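 note: potency is the fitted concentration of half-maximal effect; scaled between full activation by ribose 5 phosphate and full inhibition by luteolin; about four in five hits inhibit and the cells do not say which; series up to 57 µM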
TsaE inh: displaces an ADP probe from E. coli YjeE (TsaE). P0AF67. purified YjeE, fluorescence polarisation of a bound ADP probe. Potency, µM. 71,000 tested, 0.05% active; active = well fitted falling curve; inconclusive = weaker or top-dose-only fall, or a rising curve; inactive = flat or poorly fitted curve;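 note: top concentration of the series not given in the record; excess ADP was the control for the full effect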
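Fluorescence polarization of a BODIPY Texas Red–ADP probe (2 uM) bound to purified YjeE (10 uM) was read after 15 min room-temperature incubation with compounds. Loss of polarization marks inhibitors; ADP serves as titrated control.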
* hit, by the source's call; i = inactive; ? = inconclusive; · = no result given; & = joins results of further samples. This is a subset, so the mix of outcomes need not match the whole.

Value order – PK Bst | TsaE inh
COc1ccc(CCNc2oc(COc3ccc(Br)cc3)nc2C#N)cc1OC
  · | i
Cc1ccc(N2CC(C(=O)Nc3ccc4c(c3)OCCO4)CC2=O)cc1 (stereo not drawn)
  >57 | i
COc1ccc(CC(=O)N2CC3(C)CC2CC(C)(C)C3)cc1OC (stereo not drawn)
  · | i
COc1ccc(C(=O)/C=C(\N)C(F)(F)F)c(O)c1
  · | i
Cc1c(C(=O)N2CCN(c3ncccn3)CC2)sc2nc3n(c(=O)c12)CCCC3
  >57 | i
COCCn1c(C)cc(C(=O)CSc2nc(C)nc3sc4c(c23)CCC4)c1C
  >57 | i
COc1ccc(C)cc1S(=O)(=O)N1CCCC(C(=O)NCC2CCCO2)C1 (stereo not drawn)
  >57 | i
COc1cc2nc(C3CCC3)n(NC(=O)C3CCCC(OC)C3)c(=O)c2cc1OC (stereo not drawn)
  >57 | i
Cc1csc(NC(=O)C(NS(=O)(=O)c2ccc(Br)s2)c2ccccc2)n1 (stereo not drawn)
  >57 | i
CN(C)CCSCCO
  · | i
O=S(=O)(NCC(c1cccnc1)N1CCN(c2ccc(F)cc2)CC1)c1ccc(F)cc1 (stereo not drawn)
  · | i
O=C(Cn1nc(Cl)nc1Cl)Nc1ccccc1
  >57 | i
c1ccc(Cn2c(Sc3nnnn3-c3ccccc3)nnc2-c2ccccc2)cc1
  >57 | i
CCN(CC)CCOC(=O)C1(C2CCCCC2)CCCCC1
  >26 | i
CCN(CCC(=O)Nc1cc(OC)cc(OC)c1)Cc1ccccc1
  · | i
Cn1c(COc2ccc3ccccc3c2)nnc1SCC(=O)O
  >57 | i
CCC1CO1 (stereo not drawn)
  · | i
O=c1oc2ccccc2n1Cc1ccccc1Cl
  · | i
Cc1cc(C)n(C(=O)c2cccc(S(=O)(=O)N3CCCC3)c2)n1
  >57 | i
O=C(CCS(=O)CCC(=O)NCc1ccccc1)NCc1ccccc1
  · | i
CCCn1c(SCC(=O)Nc2ccccc2C(=O)OCC)nc2c1c(=O)n(C)c(=O)n2C
  >57 | i
CC(=O)N1CC=C2C(C#N)=C(N)C(C#N)(C#N)[C@H](c3ccoc3)[C@H]2C1
  >26 | ·
CC(C)c1ccc(OCC(O)Cn2cnc3ccccc32)cc1 (stereo not drawn)
  · | i
O=C(CSc1nnc(-c2ccco2)n1Cc1ccccc1)NC(=O)NCc1ccccc1
  >57 | i
CCCc1cc(=O)[nH]c(SCC(=O)N2CCC(C(=O)OCC)CC2)n1
  >57 | i
COCCn1c(C)cc(C(=O)COC(=O)c2c(C)nn(Cc3ccccc3)c2C)c1C
  >57 | i
O=C1CC(c2ccccc2)n2nc(NC(=O)c3cccs3)nc2N1 (stereo not drawn)
  >57 | i
COCCn1c(=O)c(CCc2ccccc2)nc2cnc(Oc3cccc(Cl)c3)nc21
  · | i
Nc1nc(CN2CCN(Cc3ccccc3)CC2)nc(Nc2ccc3c(c2)OCCO3)n1
  >57 | i
CCN1CCCC1CNC(=O)Cn1cccc1C(=O)c1ccccc1 (stereo not drawn)
  >57 | i
COc1ccc(N(CC(=O)N2CC=C(c3ccccc3)CC2)S(=O)(=O)c2c(C)noc2C)cc1
  · | i
O=C(CCCCCN1C(=O)c2ccccc2C1=O)NCc1ccco1
  >57 | i
Cc1cc(Cl)cc2c1NC(=O)[C@]21[C@@H]2C(=O)N(Cc3ccccc3)C(=O)[C@@H]2[C@@H]2CCCN21
  >57 | i
COc1cc(C2C3=C(CC(C)(C)CC3=O)Nc3c2c(=O)[nH]c(=O)n3Cc2ccccc2)ccc1O (stereo not drawn)
  >57&>57 | i
CCOC(=O)C1CCCN(CC(=O)Nc2c(C(=O)OC)[nH]c3ccc(C)cc23)C1 (stereo not drawn)
  >57 | i
Clc1ccccc1-c1nc(Nc2ccncc2)c2ccccc2n1
  · | i
O=C(NCCC1=CCCCC1)C1CCCN(S(=O)(=O)c2cnc[nH]2)C1 (stereo not drawn)
  · | i
O=C(Cn1cnc2c(nnn2Cc2ccc(Cl)cc2)c1=O)N1CCN(c2ccccc2)CC1
  · | i
CCc1cc2c(=O)c(-c3nc4ccccc4[nH]3)coc2c(CN2CCCC(C)C2)c1O (stereo not drawn)
  · | i
CCOC(=O)CS(=O)(=O)c1nc(-c2ccccc2)cc(C(F)(F)F)n1
  · | i
O=c1[nH]c(=O)n(CCOc2ccc(Cl)cc2)cc1Br
  >57 | i
Cc1cccc(-c2c3c(=O)n(C)c(=O)n(C)c3c3cccnn23)c1
  >57 | i
CCS(=O)(=O)N1CCN(CC2CC3C=CC2C3)CC1 (stereo not drawn)
  · | i
OC(CCCN1CCC(O)(c2ccc(Cl)cc2)CC1)c1ccc(F)cc1 (stereo not drawn)
  >26 | ·
CN(C)[C@@H]1C(=O)C(C(N)=O)=C(O)[C@]2(O)C(=O)C3=C(O)c4c(O)ccc(Cl)c4[C@H](O)[C@H]3C[C@@H]12
  · | i
O=C(NCc1cccnc1)c1ccc2c(c1)OCO2
  >57 | i
N[C@H](CCCC(=O)O)C(=O)O
  · | i
CCc1cc2c(NC(C(=O)O)C(C)C)ncnc2s1 (stereo not drawn)
  >57 | i
O=C(NCCN1CCOCC1)c1cc(-c2cccs2)on1
  >57 | i
CCOC(=O)c1sc2nc(SCC#N)n(CC3CCCO3)c(=O)c2c1C (stereo not drawn)
  >57 | i
COc1ccc(N2CC(C(=O)NCCCN3CCOCC3)CC2=O)cc1 (stereo not drawn)
  · | i
CCc1ccccc1NS(=O)(=O)c1ccc2[nH]cc(C(=O)NCC3CCCO3)c(=O)c2c1 (stereo not drawn)
  >57 | i
Cn1c2c(c(=O)n(C)c1=O)C(CC(=O)Nc1ccccc1)C(=O)N2 (stereo not drawn)
  >57 | i
O=C(c1ccco1)N1CCC2(CC1)CN(c1ccc(-c3ccccc3)cc1)C2
  · | i
COc1cccc(C2N(c3ccc(Cl)cc3)C(=O)C3CCCN32)c1 (stereo not drawn)
  · | i
COC(=O)C1=C(N)OC2=C(C(=O)CCC2)C1c1cccs1 (stereo not drawn)
  >57 | i
Cc1ccc(OCc2nc(C#N)c(NCc3ccco3)o2)cc1
  >57 | i
Cc1nc(N2CCN(S(=O)(=O)c3cccc4nonc34)CC2)c2c3c(sc2n1)CCCC3
  >57 | i
COc1ccc(OCCCC(=O)N2CCCc3ccccc32)cc1
  >57 | i
COc1cc(OC)nc(NC2OC(=O)c3ccccc32)n1 (stereo not drawn)
  >57 | i

(continued)
Value order – PK Bst | TsaE inh
O=C(NC1=NCCS1)c1ccc(OCC2CCCO2)cc1 (stereo not drawn)
  · | i
O=C1C(c2ccc(F)cc2)N(Cc2ccc3c(c2)OCO3)C(=O)CN1C1CCCC1 (stereo not drawn)
  >57 | i
O=C(c1cccc(C(F)(F)F)c1)N1CCCC1
  >57 | i
COc1nc(-c2ccccc2)ccc1-c1noc(-c2ccc(F)cc2)n1
  >57 | i
CN1CCc2c(sc3c2C(=O)NC(c2cn(Cc4ccccc4)c4ccccc24)N3)C1 (stereo not drawn)
  · | ?
COc1ccc(N2CCN(c3ccc(NC(=O)c4ccc5c(c4)OCO5)cc3C#N)CC2)cc1
  >57 | i
Cc1onc(-c2ccccc2Cl)c1C(=O)N(C)C1CCCCC1
  · | i
CCCc1nc2scc(-c3ccccc3)c2c(=O)n1N
  i | i
CS(=O)(=O)N1CCC2(CC1)CN(c1ccncc1)C2
  · | i
CC(=O)c1ccc(N2CCN(C(=O)c3cc4c(=O)n(C)c5ccccc5c4n3C)CC2)cc1
  · | i
Cc1noc(C)c1CSc1nc2[nH]ncc2c(=O)n1-c1ccccc1
  >57 | i
Cc1ccc(C(=O)N2CCN(C(=O)c3ccc(C)c(C)c3)C(C)C2)cc1C (stereo not drawn)
  >57 | i
Cc1ccc(S(=O)(=O)NC(CC(=O)NCC2CCCO2)c2ccco2)cc1 (stereo not drawn)
  >57 | i
N[C@@H](C(=O)O)c1ccc(O)c(C(=O)O)c1
  · | i
CCc1nnc(NC(=O)c2ccc(S(=O)(=O)N3CCN(Cc4ccccc4)CC3)cc2)s1
  >57 | i
COc1ccc(/C(O)=C2/C(=O)C(=O)N(CC3CCCO3)C2c2cccc(OC)c2)cc1 (stereo not drawn)
  >57 | i
Cc1cc(Nc2ccccc2)nc(-c2ccccc2O)n1
  i | i
CCOC(=O)c1sc2nc(N3CCCC3)c3c(c2c1N)CC(C)(C)OC3
  >57 | i
COc1ccc(C(=O)N2CCC3(CCCN(Cc4nccs4)C3)CC2)cc1
  · | i
COc1cc(S(=O)(=O)NCCN2CCOCC2)c(OC)cc1Cl
  >57 | i

Of the compounds above, 4 contain a COOH group:
Value order – PK Bst | TsaE inh
Cn1c(COc2ccc3ccccc3c2)nnc1SCC(=O)O
  >57 | i
N[C@H](CCCC(=O)O)C(=O)O
  · | i
CCc1cc2c(NC(C(=O)O)C(C)C)ncnc2s1 (stereo not drawn)
  >57 | i
N[C@@H](C(=O)O)c1ccc(O)c(C(=O)O)c1
  · | i

Other entries
Value order – PK Bst | TsaE inh
CCOC(=O)N1CCN(C(=O)c2ccc(S(=O)(=O)c3ccc(C)cc3)c(NC(C)=O)c2)CC1
  >57 | i
CN(C)c1ncc2ncc(=O)n(CCC#N)c2n1
  · | i
Cc1cc(N2CCOCC2)nc(NCc2ccccc2)n1
  · | i
O=C(O)Cc1ccc(-c2ccccc2)cc1
  >26 | i
COc1cccc(Nc2nc(N)nc(C(F)(F)F)n2)c1
  · | i
COc1cc(CC(=O)Nc2sccc2C(N)=O)cc(OC)c1OC
  >57 | i
O=C(CCC(=O)N(CC(=O)NC1CCCCC1)c1ccc2c(c1)OCO2)Nc1ccccn1
  >57 | i
COc1ccc(/C(O)=C2\C(=O)C(=O)N(CCN3CCOCC3)C2c2ccccc2OC)cc1 (stereo not drawn)
  >26 | ·
CCOC(=O)c1c(NC(=O)Cc2cccs2)sc2c1CCCC2
  >57 | i
COc1ccc(N(CC(=O)NCc2ccco2)S(C)(=O)=O)cc1
  >57 | i
CCCn1c(=O)c2ccccc2n2c(SCc3cc(=O)n4ccsc4n3)nnc12
  >57 | i
CC(C)C(=O)Nc1cc(C(F)(F)F)ccc1N1CCOCC1
  >57 | i
COc1ccc(-c2nc(C3CCCCC3)no2)cc1OC
  >57 | i
Cc1ccccc1NC(=O)C1CCCN1C(=O)NC1CCCCC1 (stereo not drawn)
  >57 | i
Cc1cccc(N2C(=O)CC(N3CCOCC3)C2=O)c1 (stereo not drawn)
  · | i
N=c1n(CCO)c2ccccc2n1CCOc1ccccc1
  >57 | i
CC(C)c1ccc2oc(=O)cc(CN3CCN(c4ccccc4)CC3)c2c1
  >57 | i
O=C(c1cc2cc(Cl)cc(Cl)c2oc1=O)N1CCOCC1
  >57 | i
CCS(=O)(=O)c1ccc(NC(=O)c2ccccc2Cl)c(O)c1
  >57 | i
CC(=O)c1cccc(NC(=O)c2ccco2)c1
  >57 | i
COc1ccc(N(CC(=O)NCCSc2ccccn2)S(C)(=O)=O)cc1Cl
  · | i
COc1ccc(OCc2cccc(C(=O)N3CCCC3)c2)cc1
  · | i
O=C(c1cc2n(n1)C(C(F)(F)F)CC(c1ccco1)N2)N1CCN(c2ccccn2)CC1 (stereo not drawn)
  >57 | i
O=C(Nc1ccc(C(=O)N2CCCC2)cc1)c1ccccc1F
  >57 | i
CC1(C(=O)NCC2CC2)C=CC2(CCCCC2)N1C(=O)c1ccccc1 (stereo not drawn)
  · | i
CCOc1ccc(Cl)cc1/C=N/O
  · | i
CCOC(=O)CSC1=C(C#N)C(c2ccc(OC)cc2)C2=C(CC(C)(C)CC2=O)N1 (stereo not drawn)
  >26 | ·
COc1ccc(OC)c(NC(=O)C2CCN(S(=O)(=O)c3cccs3)CC2)c1
  >57 | i
Cc1ccccc1-n1nnnc1SCC(N)=O
  · | i
CCOC(=O)C1=C(C)N=C2SC(C)C(=O)N2C1c1ccc(OC(C)=O)c(OCC)c1 (stereo not drawn)
  >57 | i
CCOC(=O)N1CCN(C(=O)CN(c2cccc(C)c2)S(=O)(=O)c2ccccc2)CC1
  · | i
CC(=O)CC1OC(=O)C(Br)=C1NCc1ccccc1 (stereo not drawn)
  >57 | i
COc1ccccc1-c1nnc(SCC(=O)OC(C)C)o1
  >57 | i
CCN(CCCNC(=O)C1CCCN(S(=O)(=O)CC)C1)c1cccc(C)c1 (stereo not drawn)
  >57 | i
CN(C)c1cccc2c(S(=O)(=O)Nc3ccccn3)cccc12
  >57 | i
Cc1ccc(S(=O)(=O)N2CCCCC2C(=O)NCc2ccco2)cc1 (stereo not drawn)
  >57 | i
COc1cccc(-n2nnc3c(=O)n(CC(=O)N4CCC(Cc5ccccc5)CC4)cnc32)c1
  >57 | i
O=C(O)C1Cc2c([nH]c3ccccc23)C(c2ccc3c(c2)OCO3)N1 (stereo not drawn)
  >11 | i

Profiles from above. Order of values: PK Bst	TsaE inh
Entry for COc1ccc(N2CCN(c3ccc(NC(=O)c4ccc5c(c4)OCO5)cc3C#N)CC2)cc1 = >57	i
Entry for O=C(Cn1nc(Cl)nc1Cl)Nc1ccccc1 = >57	i
Entry for COc1ccc(CCNc2oc(COc3ccc(Br)cc3)nc2C#N)cc1OC = ·	i
Entry for COc1cccc(Nc2nc(N)nc(C(F)(F)F)n2)c1 = ·	i
